TRPML1 ag = human mucolipin-1 channel agonism; activation, % (no concentration beside the values); AID 624414; actives 0.12% (n = 410,000); TRPML1-expressing cells, Ca2+ dye fluorescence, FDSS; host cell line not named in the record; reference of the full effect not given here; in the data active = activation above about 50%; inconclusive = about 30% to 50%; inactive = below about 30%; note: 0% is about no effect; the text of the record puts the active cut at 80%
Target sequence (Q9GZU1 whole entry, looked up): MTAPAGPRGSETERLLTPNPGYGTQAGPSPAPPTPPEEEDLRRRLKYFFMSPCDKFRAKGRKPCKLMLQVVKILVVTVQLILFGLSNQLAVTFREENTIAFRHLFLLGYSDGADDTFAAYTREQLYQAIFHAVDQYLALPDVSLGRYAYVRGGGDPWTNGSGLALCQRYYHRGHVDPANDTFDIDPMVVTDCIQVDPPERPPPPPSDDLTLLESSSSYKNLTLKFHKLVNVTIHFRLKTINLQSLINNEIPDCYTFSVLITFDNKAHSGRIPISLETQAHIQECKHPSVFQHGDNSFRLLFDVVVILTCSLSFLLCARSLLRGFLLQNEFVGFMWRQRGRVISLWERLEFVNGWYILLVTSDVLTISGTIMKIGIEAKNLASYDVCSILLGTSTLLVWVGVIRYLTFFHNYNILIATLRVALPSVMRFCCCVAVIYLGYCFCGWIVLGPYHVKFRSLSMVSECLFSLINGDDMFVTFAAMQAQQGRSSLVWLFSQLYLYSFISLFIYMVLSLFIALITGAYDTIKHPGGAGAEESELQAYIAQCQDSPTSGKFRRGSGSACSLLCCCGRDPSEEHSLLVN
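Agonist activity was taken from a 110 s kinetic Ca2+ dye read on the FDSS after pinning compounds onto TRPML1-DL cells. The cells were seeded at 1,500/well with Tet inducer, incubated about 16 h, then dye-loaded at room temperature.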
PINK1 expr mod = PINK1 expression modulation. actives 0.2% (n = 410,000). PINK1 immunofluorescence, high-content cytometry, 24 h. Potency, µM (top dose mostly 76.6 µM), without a hit: at the highest dose activation (PINK1 increase), actives largely listed as activators. AID 624263; active = well fitted activation curve with a large enough effect; inconclusive = small, poorly fitted or top-dose-only effect; inactive = flat fitted curve, though single readings scatter; cell line not stated here;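 note: potency is the fitted concentration of half-maximal effect; % of control where 0% means no effect; nearly all actives have a fitted effect of over 65% in size; a mitochondrial uncoupler was the plate control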
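Measures PINK1 amount and localization on or inside mitochondria by immunofluorescence. Stable cells get compounds at 5 concentrations for 24 hours before fixation and staining; CCCP controls included.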
An asterisk follows results filed as active; u = inconclusive. Some of the compounds tested; the hit share may differ from the screen's.

Structure,PINK1 expr mod,TRPML1 ag
Cc1ccc2c(c1)cc1c(=O)n(CC(=O)NCc3ccco3)nc(C)n12,0.4%,-0.1
COc1ccc2[nH]c(C)c(C(=O)CN(C)CC(OC)OC)c2c1,0.6%,-0.3
Cc1cc(=O)n2c(C(=O)Nc3ccc(C)c(Cl)c3)c(C(=O)Nc3ccccc3)sc2n1,1.3%,0.1
O=C(Nc1cccc(F)c1)[C@H](CSCc1ccccc1)N1Cc2ccccc2C1=O,4.2%,3.8
COc1ccc(N(CC(=O)N2CCN(c3ccc(F)cc3)CC2)S(=O)(=O)c2c(C)nn(C)c2C)cc1,0.8%,0.2
CC(=O)N1CCCc2cc(S(=O)(=O)NCc3ccccc3Cl)ccc21,-0.1%,0.0
CCCC(=O)N1CCc2cc(OC)c(OC)cc2C1COc1ccc(C(=O)OC)cc1 (stereo not drawn),-4.5%,2.9
CCc1nnc(SCC(=O)Nc2cccc(C(F)(F)F)c2)c2cc3oc(C)cc3n12,5.6%,-0.2
COc1cccc(-c2noc(-c3cc(C(C)C)[nH]n3)n2)c1OC,-0.3%,-0.6
N#CC1=C2SCN(C3CCCCC3)CN2C(=O)CC1c1c(F)cccc1Cl (stereo not drawn),0.2%,1.8
Cc1cccc(Cn2cc(/C=C(/C#N)C(=O)Nc3cccc(Cl)c3)c3ccccc32)c1,5.9%,2.5
O=C(CSc1nc2c(cnn2-c2ccc(F)cc2)c(=O)[nH]1)Nc1ccccc1C(F)(F)F,1.0%,1.2
COc1ccc(CN2C(=O)N(c3cccc(C)c3)C(=O)C2CC(=O)Nc2ccc(F)cc2)cc1OC (stereo not drawn),2.3%,-0.3
O=C(NCC1CCN(Cc2ccccc2F)CC1)Nc1ccc(F)c(Cl)c1,-0.3%,1.0
Cc1ccc(N2CCn3c2nc2c3c(=O)n(CCCc3ccccc3)c(=O)n2C)cc1,0.4%,0.3
Cc1cc(NC(=O)COCc2cc(-c3ccc(F)cc3)on2)ccc1Br,-0.5%,6.1
COc1ccc(Cn2ccc3nc(C)c(C(=O)NCc4ccc(OC)cc4OC)cc3c2=O)cc1,-0.5%,0.3
Cc1ccc(NC(=O)[C@H](CSCc2ccccc2)N2Cc3ccccc3C2=O)cc1,1.9%,0.1
CCc1ccc(Sc2cc(C(=O)NCCCN3CCC(C)CC3)c3ccccc3n2)cc1,-0.7%,1.5
Cc1c(Cl)cccc1-n1ncc(C(=O)N2CCC(C)CC2)c1C1CCN(C(=O)OC(C)(C)C)CC1,-0.5%,-0.4
CCC(C)OC(=O)/C(C#N)=C/c1ccc(-c2ccc(Br)cc2)o1 (stereo not drawn),5.2%,-0.3
C#CCn1c(=O)n(-c2cccc(Cl)c2C)c(=O)c2c3c(sc21)CN(C(C)=O)CC3,0.2%,-0.7
CCN(CC)C(=O)c1sc2c(c1C)c(=O)n(Cc1ccccc1)c(=O)n2Cc1c(C)cc(C)cc1C,2.1%,1.3
O=C(NC1CC(=O)N(c2ccccc2)C1)c1cccs1 (stereo not drawn),0.7%,-0.2
COc1ccc(Cl)cc1NC(=O)C(C)Sc1nc2c(c(=O)[nH]1)CCCC2 (stereo not drawn),0.9%,2.5
O=C(Nc1cc(Cl)ccc1Cl)c1cc(S(=O)(=O)NCCc2ccccc2)ccc1F,6.2%,4.3
COc1cc(NC(=O)c2cc3cc4ccc(C)cc4nc3o2)cc(OC)c1OC,0.9%,0.1
O=C(Nc1ccc(F)cc1F)c1ccc2c(O)c(S(=O)(=O)c3ccc(Cl)cc3)c(=O)[nH]c2c1,0.8%,-0.2
Cc1ccccc1OCC(=O)Nc1ccccc1C(=O)OCc1cc(=O)n2ccsc2n1,2.0%,-0.5
CCN(CC)c1ccc(NC(=O)Cn2nc3c(cc2=O)CCCC3)c(C)c1,-0.8%,-0.7
CCOc1ccccc1CNC(=O)c1oc2c(c1C)-c1[nH]ncc1CC2,0.8%,5.1
CSc1cccc(N2C(=O)N(CC(=O)NCc3ccccc3Cl)c3ccccc3S2(=O)=O)c1,12.7%,1.1
Cc1cccc(-c2nc3c4ccccc4nc(NCc4ccccc4Cl)n3n2)c1,0.4%,-0.2
CCOc1ccc(C(=O)c2oc3ccccc3c2NC(=O)Cc2coc3cc(C)cc(C)c23)cc1,0.4%,1.0
Cc1cc(Cl)ccc1Nc1ncnc2onc(C)c12,-0.7%,0.8
Cc1ccc(NC(=O)CCC(=O)N2Cc3ccccc3Oc3ncccc32)cc1Cl,-0.2%,-0.3
CC(C)(C)c1ccc(CSc2nc3c(c(=O)[nH]2)CCCC3)cc1,3.5%,1.1
Cc1ccc2c(c1)c(=O)c(C(=O)c1ccc3c(c1)OCO3)cn2Cc1cccc(F)c1,-0.7%,3.0
CCCSc1oc(-c2cccs2)nc1S(=O)(=O)c1ccc(Cl)cc1,1.5%,-0.1
CCCOc1cccc(C(=O)Nc2cc(-c3ccccc3)no2)c1,4.4%,0.2
COC(=O)c1c(SCC(=O)Nc2cc(C)cc(C)c2)[nH]c2ccccc2c1=O,u,-0.2
CN(C)c1ccc(/C=C(\C#N)c2nc(-c3ccc(Cl)c(Cl)c3)cs2)cc1,0.8%,0.3
COc1ccc(NC(=O)c2c(C)oc3ccc(O)c(CN4CCC(C)CC4)c23)cc1,-0.1%,0.4
CCOc1ccccc1NC(=O)CSc1nnc(CC)c(CC)n1,-0.1%,1.5
COc1ccc(N(CC(=O)NCCc2ccccc2)S(=O)(=O)c2c(C)nn(C)c2C)cc1,1.7%,-0.4
CCOC(=O)c1nc(NCc2ccc(Cl)cc2)c2c(C)noc2n1,1.3%,1.7
CC(NCc1ccc2c(c1)n(C)c(=O)n2C)c1ccccc1 (stereo not drawn),-0.2%,-0.1
CCN(Cc1ccccc1)C(=O)Cn1c(=O)cc(C)c2c(C)nn(-c3cccc(F)c3)c21,3.3%,2.9
CCOC(=O)C1CCC(CN(Cc2c(Cl)cccc2Cl)S(=O)(=O)c2ccc(F)cc2)CC1 (stereo not drawn),-0.8%,2.1
CN(C)c1ccc(/C=C/c2ccc3cc(F)ccc3n2)cc1,1.4%,19.1
CCCCS(=O)(=O)c1nc(-c2ccc(Br)cc2)cc(-c2ccccc2)c1C#N,0.4%,0.4
CCc1ccc(-c2nc(SCC(=O)NCC3CCCO3)c(-c3ccc(C)cc3)[nH]2)cc1 (stereo not drawn),0.5%,-0.5
Oc1c(C(c2ccc(Cl)cc2Cl)N2CCN(Cc3ccccc3)CC2)sc2nc(-c3ccco3)nn12 (stereo not drawn),1.3%,-1.0
Cc1ccc(NC(=O)c2cnc(N3CCCC3)nc2C)cc1F,1.0%,2.3
COc1cc(OC)c(Nc2ncnc3onc(-c4cccc(Cl)c4)c23)cc1Cl,1.0%,0.5
Cc1ccc(C)c(N(C)C(=O)C2CCN(c3ncnc4c3nc3n4CCCCC3)CC2)c1,14.2%,1.8

More results follow:
Structure,PINK1 expr mod,TRPML1 ag
CCN(CC)S(=O)(=O)c1ccc2c(c1)N(CC(=O)Nc1c(C)cc(C)cc1C)C(=O)C1CCCN21 (stereo not drawn),-0.3%,-0.5
Cn1c(=O)cc(SCC(=O)NCc2ccc(F)cc2)c2ccc(Cl)cc21,2.2%,-0.4
Cc1ccnc(NC(c2cc(C)ccc2O)c2ccc3cccnc3c2O)c1 (stereo not drawn),1.5%,2.1
COc1ccccc1NC(=O)N1CC(=O)Nc2sc3c(c2C1c1ccccc1)CCCC3 (stereo not drawn),-1.5%,1.0
CCN(CC)CCCNC(=O)Cc1ccc(NC(=O)N2CCCCc3ccccc32)cc1,-1.4%,-0.4
Cc1c(CCC(=O)NCc2cccc(Cl)c2)c(=O)oc2c(C)c(O)ccc12,4.6%,-1.2
CCN(C(=O)Cn1nnc2sc3c(c2c1=O)CCC(C(C)(C)C)C3)c1cccc(C)c1 (stereo not drawn),3.2%,2.8
COc1ccc(-c2nc(SCCOc3cc(C)ccc3C(C)C)n3[nH]c(=O)cc3n2)cc1,1.1%,-0.6
COc1ccccc1NC(=O)c1cc(=O)c2ccc(C)c(C)c2o1,0.7%,-0.3
O=C(c1ccc2c(c1)N(Cc1ccccc1Cl)C(=O)c1ccccc1S2)N1CCCC1,-1.6%,5.1
CCc1cccc(CC)c1NC(=O)c1c(C)oc2ccc(O)c(CN3CCOCC3)c12,1.3%,-1.1
O=C(Nc1ccc2c(c1)CCCN2C(=O)c1cccs1)c1ccccc1Cl,1.8%,1.8
COc1ccc(NC(=O)c2sc3nc(-c4ccc(OC)cc4)cc(C(F)(F)F)c3c2N)cc1,u,1.8
COc1ccc(C(CNC(=O)c2ccc(F)cc2)N2CCCC2)cc1 (stereo not drawn),-0.1%,2.9
O=C1CC(c2nc3ccccc3[nH]2)CN1c1cccc(Cl)c1 (stereo not drawn),2.0%,-0.5
COc1cc(CNC(=O)CSCc2nc3cccnc3n2C2CCCCC2)cc(OC)c1OC,0.0%,0.5
COc1ccc(NC(=O)CSc2nc(-c3cc(OC)c(OC)c(OC)c3)[nH]c2-c2ccc(F)cc2)cc1,5.7%,1.2
CCOC(=O)c1c(NC(C)=O)c2c3c(sc2n1Cc1c(C)cc(C)cc1C)CCCC3,4.3%,0.5
CCOc1c(Cl)cc(Cl)cc1CNCCSc1nnnn1C,1.8%,0.2
CCc1ccc(-c2nc(CN3CCCC(C(=O)N4CCN(c5cc(Cl)ccc5C)CC4)C3)c(C)o2)cc1 (stereo not drawn),-0.7%,-0.3
COc1ccc(NC(=O)C2CCN(S(=O)(=O)c3cn(C)cn3)CC2)cc1Cl,-1.1%,0.5
COc1ccc(-c2c(C)nn3c(N4CCN(c5ccccc5F)CC4)cc(C)nc23)cc1OC,-1.7%,0.6
COc1ccc(C2Nc3ccccc3C(=O)N2Cc2ccccc2)cc1COc1ccccc1F (stereo not drawn),8.1%,-0.5
COC(=O)c1c(N)n(-c2cc(Cl)cc(Cl)c2)c2nc3ccccc3nc12,-4.9%,0.0
Cc1nn2c(=O)cc(COC(=O)c3ccccc3NC(=O)c3ccccc3C)nc2s1,-0.4%,2.8
CCc1ccc(C2C(C(=O)Nc3ccccc3OC)=C(C)Nc3nc(SCc4ccccc4)nn32)cc1 (stereo not drawn),-1.2%,-0.2
COc1cccc(-n2c(=O)c3sc4ccccc4c3n(CC(=O)Nc3ccccc3OC)c2=O)c1,5.8%,0.0
COc1ccc(NC(=O)CC2C(=O)N(c3ccc(OC)cc3)C(=O)N2C2CCCCC2)cc1 (stereo not drawn),0.4%,-0.5
CC1(C)CC(=O)c2c(oc3c(Cl)cc(NS(=O)(=O)c4ccc(Cl)cc4)cc23)C1,-0.4%,-0.1
COc1ccc(NC(=O)CSc2nc3ncccc3[nH]2)c(OC)c1,4.6%,-1.0
Cc1ccc(OCC(=O)Nc2cc(-c3cccc(C)c3)nn2-c2ccccc2)cc1,10.5%,0.3
CC(C)CCNC(=O)Cn1c(-c2cccs2)cc2cc(F)ccc21,0.6%,1.4

A portion from the list above, as a working copy:
Structure,PINK1 expr mod,TRPML1 ag
CCc1ccc(C2C(C(=O)Nc3ccccc3OC)=C(C)Nc3nc(SCc4ccccc4)nn32)cc1 (stereo not drawn),-1.2%,-0.2
COc1cccc(-n2c(=O)c3sc4ccccc4c3n(CC(=O)Nc3ccccc3OC)c2=O)c1,5.8%,0.0
COc1ccc(NC(=O)CC2C(=O)N(c3ccc(OC)cc3)C(=O)N2C2CCCCC2)cc1 (stereo not drawn),0.4%,-0.5
CC1(C)CC(=O)c2c(oc3c(Cl)cc(NS(=O)(=O)c4ccc(Cl)cc4)cc23)C1,-0.4%,-0.1
COc1ccc(NC(=O)CSc2nc3ncccc3[nH]2)c(OC)c1,4.6%,-1.0
Cc1ccc(OCC(=O)Nc2cc(-c3cccc(C)c3)nn2-c2ccccc2)cc1,10.5%,0.3
CC(C)CCNC(=O)Cn1c(-c2cccs2)cc2cc(F)ccc21,0.6%,1.4

Continuation:
Structure,PINK1 expr mod,TRPML1 ag
COc1ccc(CNC(=O)Cn2c(=O)nc(-c3ccccc3)c3ccccc32)cc1OC,0.5%,2.2
CCOCCCNC(=O)N1CCN(S(=O)(=O)c2ccc3c(ccn3C)c2)CC1,-0.1%,0.5
CCN(CCCNC(=O)c1nn(-c2ccc(C)cc2)c(=O)c2c1c1ccccc1n2C)c1ccccc1,4.0%,1.2
O=C(NNc1ccccc1F)c1cccs1,0.2%,-0.4
COC(=O)c1sccc1S(=O)(=O)N(CC(=O)Nc1ccccc1)c1ccccc1,0.1%,1.6
CN(C)c1ccc(/C=C/c2c[n+](C)cc3ccccc23)cc1,44.7µM*,-0.6
CCCCc1ccc(-n2nc3cc(Cl)c(NC(=O)c4ccc(OC)cc4)cc3n2)cc1,2.7%,-0.8
Cc1ccc(-n2nnnc2CNC(=O)c2cc(C(F)(F)F)cc(C(F)(F)F)c2)cc1C,-0.3%,2.3
Cc1ccc(CNC(=O)CSc2ncc3c(n2)-c2cc(Cl)ccc2N(C)S3(=O)=O)cc1,0.4%,0.0
CCOC(=O)c1cc(OC(=O)c2cccc(Cl)c2)n(-c2ccccc2)n1,0.3%,-0.4

Screens from PubChem.
